Mtb H37Rv – Mycobacterium tuberculosis H37Rv growth inhibition, cell based, confirmatory dose response (AID 1949) | inhibition, % at 10 µg/mL; hits with a dose series show IC50 in µg/mL | 1.6% of 100,000 active | M. tuberculosis H37Rv growth inhibition | most inactive calls were filed without a number and no value below 0 was filed;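 active means confirmed in a dose series; inconclusive means about 50% or more but not retested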;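 further: bacteria grown 7 days with compound before Alamar blue readout; 0% = untreated bacteria and 100% = reference antibiotic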
* = called active by the depositor; i = inactive; ? = inconclusive. Some of the compounds tested; rates above refer to the full screens.

SMILES	Mtb H37Rv
CC(=O)N1N=C(c2ccc(O)cc2)CC1c1ccco1 (centres undefined)	i
CN(CC(=O)Nc1ccccc1C(=O)N1CCCC1)S(=O)(=O)c1ccc(Br)cc1	3%
COC(=O)Cc1c(C)c2ccc(OCC(=O)N3CCCC(C)C3)c(C)c2oc1=O (centres undefined)	i
CCOC(=O)C1CCN(C(=O)CN(c2ccc(C)c(C)c2)S(=O)(=O)c2ccc(Cl)cc2)CC1	i
Cc1c(C)c2ccc(OCC(=O)N3CCC(Cc4ccccc4)CC3)cc2oc1=O	4%
COc1ccc(NC(=O)CSc2n[nH]c(-c3ccncc3)n2)cc1	i
CCOC(=O)CSc1nc2sc3c(c2c(=O)n1-c1ccccc1)CCCC3	i
CCCNc1nc(OCC)nc(N2CC3CC(C2)c2cccc(=O)n2C3)n1 (centres undefined)	i
CC(SCc1ccccc1)C(=O)NC1CCCC1 (centres undefined)	i
N#C/C(=C\c1ccc(Cl)cc1Cl)S(=O)(=O)c1ccccc1	i
CCC(=O)c1ccc(OC(=O)N(C)C)cc1	i
CC1CCC(NC(=O)Cc2cccc3ccccc23)CC1 (centres undefined)	i
NC(=O)c1c(-c2ccc(Cl)cc2Cl)csc1NC(=O)COc1ccccc1Cl	i
Cc1cc(C)n2c(SCc3ccccc3)nnc2n1	i
CCSc1nnc(NC(=O)c2ccc(F)cc2)s1	13%
Cc1ccc(C)c(S(=O)(=O)Nc2ccc(O)c(Sc3ncn[nH]3)c2)c1	i
CC(C)=C1C2CCC1C(C(=O)NCCC1=CCCCC1)C2C(=O)O (centres undefined)	i
Cc1cc(C(=O)NCCc2ccc(S(N)(=O)=O)cc2)sc1-c1ccccc1	i
O=C(/C=C/c1ccc(Cl)c(Cl)c1)Nc1ncc(Cc2cccc(C(F)(F)F)c2)s1	i
COc1ccc(NS(=O)(=O)c2ccc(-c3ccc(OC)cc3)cc2)cc1	i

Taken from the listing for reference:
SMILES	Mtb H37Rv
COC(=O)Cc1c(C)c2ccc(OCC(=O)N3CCCC(C)C3)c(C)c2oc1=O (centres undefined)	i
CCOC(=O)C1CCN(C(=O)CN(c2ccc(C)c(C)c2)S(=O)(=O)c2ccc(Cl)cc2)CC1	i
Cc1c(C)c2ccc(OCC(=O)N3CCC(Cc4ccccc4)CC3)cc2oc1=O	4%
COc1ccc(NC(=O)CSc2n[nH]c(-c3ccncc3)n2)cc1	i
CCOC(=O)CSc1nc2sc3c(c2c(=O)n1-c1ccccc1)CCCC3	i
CCCNc1nc(OCC)nc(N2CC3CC(C2)c2cccc(=O)n2C3)n1 (centres undefined)	i
CC(SCc1ccccc1)C(=O)NC1CCCC1 (centres undefined)	i
N#C/C(=C\c1ccc(Cl)cc1Cl)S(=O)(=O)c1ccccc1	i
CCC(=O)c1ccc(OC(=O)N(C)C)cc1	i
CC1CCC(NC(=O)Cc2cccc3ccccc23)CC1 (centres undefined)	i
NC(=O)c1c(-c2ccc(Cl)cc2Cl)csc1NC(=O)COc1ccccc1Cl	i
Cc1cc(C)n2c(SCc3ccccc3)nnc2n1	i
CCSc1nnc(NC(=O)c2ccc(F)cc2)s1	13%
Cc1ccc(C)c(S(=O)(=O)Nc2ccc(O)c(Sc3ncn[nH]3)c2)c1	i
CC(C)=C1C2CCC1C(C(=O)NCCC1=CCCCC1)C2C(=O)O (centres undefined)	i
Cc1cc(C(=O)NCCc2ccc(S(N)(=O)=O)cc2)sc1-c1ccccc1	i
O=C(/C=C/c1ccc(Cl)c(Cl)c1)Nc1ncc(Cc2cccc(C(F)(F)F)c2)s1	i
COc1ccc(NS(=O)(=O)c2ccc(-c3ccc(OC)cc3)cc2)cc1	i

Next records
SMILES	Mtb H37Rv
CCCc1c(C)c2ccc(OC(=O)CCNC(=O)OCc3ccccc3)cc2oc1=O	i
Cc1ccccc1CN(CC(=O)N1CCOCC1)S(=O)(=O)c1ccc(Cl)cc1	2%
CCCc1c(O)nc(SCCN(C)C)[nH]c1=O	0%
CCOc1ccc(N(CC(=O)O)S(=O)(=O)c2ccc(Br)cc2)cc1	i
Cc1cc2oc(C(=O)Nc3ccc(S(=O)(=O)N4CC(C)OC(C)C4)cc3)c(C)c2cc1C (centres undefined)	i
CCCCC(=O)Nc1cccc(NC(=O)c2ccc([N+](=O)[O-])c(C)c2)c1	6%
Cc1cccc(C)c1NS(=O)(=O)c1ccc(NS(=O)(=O)c2ccc(F)cc2)cc1	i
CC(C)CCNC(=O)c1ccc(Br)o1	i
Cc1cccc(N/C(N)=N/c2nc(C)cc(=O)[nH]2)c1	i
Cc1cccn2cc(-c3cccc(NC(=O)Cc4ccccc4)c3)nc12	3%
O=c1[nH]c2ccccc2n1CCCSc1nnc2c(n1)[nH]c1ccccc12	i
O=C(NCc1ccco1)Nc1cccc2ccccc12	i
CCn1c2ccccc2c2cc(NC(=S)NC(=O)c3ccco3)ccc21	43%
CCOC(=O)N1CCN(C(=S)Nc2cc(OC)c(Cl)cc2OC)CC1	i
Cc1ccc(CNC(=S)Nc2ccc(OC(F)F)cc2C)cc1	2%
CCOCCCNC(=O)c1c(NC(=O)c2nc(SC)ncc2Cl)sc2c1CCC2	i
COc1ccc(C(=O)Nc2ccc(COCC(F)(F)F)cc2)cc1	i
Cc1nc(-c2ccc(OC(=O)c3ccccc3)cc2)cs1	25%
Oc1ccc(NCc2cccc3ccccc23)cc1	i
Cc1ccc(NC(=O)C(=O)NCCC2=CCCCC2)c(C)c1	i
O=C(CSc1nnc(-c2ccncc2)n1-c1ccc(Br)cc1)Nc1ccc(Cl)cc1	i
Cc1ccnc(NCc2ccc(Br)cc2)c1	i
Cc1cc(NC(=O)c2cc(C)on2)no1	i
O=C(Nc1ccccc1)c1ccccc1NC(=O)C1CC1	10%
COc1cccc(OC)c1C(=O)Nc1ccc(Cl)cc1C	16%
O=C(CSc1nnc(-c2cccc(Cl)c2)o1)Nc1ccccc1	i
COc1ccccc1N1CCN(S(=O)(=O)c2ccc(C)cc2)CC1	i
CC(=O)Nc1ccc(S(=O)(=O)Nc2ccc(C(=O)c3ccccc3)cc2)cc1	i
COc1ccc(S(=O)(=O)N(C)CC(=O)N2CCCC2)cc1C	i
O=C(CSc1ccccc1)Nc1ccc(Nc2ccccc2)cc1	i
O=C(Nc1cccc(C(F)(F)F)c1)C1CC(=O)N(c2ccc(F)cc2)C1 (centres undefined)	i
CCC(Sc1nncn1C)C(=O)Nc1sc2c(c1C#N)CCCC2 (centres undefined)	i
Cc1onc(-c2ccccc2)c1C(=O)N1CCCN(C(=O)c2c(-c3ccccc3)noc2C)CC1	i
CN1C(=O)c2ccc(-c3nc4ccccc4s3)cc2C1=O	i
COc1ccc(N(CC(=O)Nc2ccc(CSc3ccccc3)cc2C)S(C)(=O)=O)cc1OC	9%
Fc1ccc(-n2c(-c3cccs3)n[nH]c2=S)cc1Cl	i
CCCCc1c(O)n2c(nc3ccccc32)[nH]c1=O	3%
O=C(CSc1nnc(-c2ccccc2Cl)o1)Nc1ccc(Cl)c(Br)c1	i
O=C(Nc1ccc(-c2cc3ccccc3oc2=O)cc1)c1ncn[nH]1	i
CCOC(=O)COc1ccc(Cl)cc1C1NC(=S)NC(C)=C1C(=O)OCC (centres undefined)	2%
COc1ccc(S(=O)(=O)N2CCC(C(=O)Nc3cccc(C(F)(F)F)c3)CC2)cc1	2%
Cc1nc(SCCC(C)C)c([N+](=O)[O-])[nH]1	i
O=C(NCCc1ccccc1)c1ccc(CSc2ccccc2)cc1	3%
CN(CC(=O)N1CCN(c2ccccn2)CC1)S(=O)(=O)c1ccc2ccccc2c1	i
CC(C)CNC(=O)c1ccc(NC(=O)CSc2ccc(Cl)cc2)cc1	i
Cc1c(Sc2ccc(Cl)cc2)c(=O)[nH]c2cc3c(cc12)OCO3	i
CCOC(=O)c1ccc(NC(=O)c2cc(Cl)ccc2NC(=O)c2ccco2)cc1	i
CCCc1cc(C(=O)OCC)c(NC(=O)C2C3C=CC(C3)C2C(=O)O)s1 (centres undefined)	i
CC(C(=O)Nc1cccc2cccnc12)N1C(=O)c2ccccc2C1=O (centres undefined)	i
O=C(Nc1ccccc1C(=O)NCc1ccccc1)c1ccc(-c2ccccc2)cc1	i
Going on with the list.
SMILES	Mtb H37Rv
CCOc1ccc(N(CC(=O)Nc2ccc(NC(C)=O)cc2)S(=O)(=O)c2ccc(Br)cc2)cc1	i
Cc1cc(C)c(OCC(=O)Nc2nnn(C)n2)c(Br)c1	i
NC(=O)C1CCN(C2CC(=O)N(c3ccccc3[N+](=O)[O-])C2=O)CC1 (centres undefined)	i
COC(=O)C1=C(C)Nc2cc(C(F)(F)F)ccc2S1	14%
CC1=C(C)CC(C(=O)Nc2cccc3ccccc23)C(C(=O)O)C1 (centres undefined)	i
O=C(NC(Cc1ccccc1)C(=O)N1CCN(c2ccccc2)CC1)c1ccccc1 (centres undefined)	i
CCOCC(=O)NCc1ccc2c(c1)OCO2	i
O=C(CSc1nnc(-c2cccnc2)n1-c1ccc(Br)cc1)Nc1ccc2c(c1)OCCO2	i
CCOc1ccc2[nH]c3nc4ccccc4nc3c2c1	5%
CN1C(=O)c2ccc(-c3nc4ccc(Cl)cc4c(=O)o3)cc2C1=O	i
Cc1ccc(-c2csc3nc(SCC(N)=O)n(-c4ccccc4)c(=O)c23)cc1C	3µg/mL*
Cc1ccc(NC(=S)NC(=O)C23CC4CCC(CC(C4)C2)C3)cc1	1%
CCc1ccc(C(=O)NC(=S)Nc2ccc3c(c2)Cc2ccccc2-3)cc1	i
CCC(=O)c1c(C)nc2n(Cc3ccccc3)c3ccccc3n12	i
CS(=O)(=O)N(CC(=O)NCCSCc1c(F)cccc1Cl)c1cccc(C(F)(F)F)c1	i
Cc1cccc(CN(CC(=O)NCc2ccco2)S(=O)(=O)c2ccc(Cl)cc2)c1	7%
Cc1ccccc1NC(=O)c1ccc(NC(=O)C(c2ccccc2)c2ccccc2)cc1	27%
Cc1ccc(CC2(CCc3ccncc3)C(=O)N(C)C(=O)N(C)C2=O)s1	i
Cc1ncc([N+](=O)[O-])n1CCSc1nc2ccccc2s1	3%
COC(=O)Cc1ccc(NC(=O)c2ccccc2Br)cc1	i
CCOc1cc(C(=O)O/N=C(\N)Cc2ccc(Cl)cc2Cl)cc(OCC)c1OCC	38µg/mL*
CC(NS(=O)(=O)c1cc(Cl)ccc1Cl)C(N)=O (centres undefined)	i
Nc1ccc(C(=O)NCC2(c3ccccc3)CCCC2)cc1	i
O=C(CN1C(=O)c2ccccc2C1=O)Nc1ccc(NC(=O)c2ccccc2F)cc1	i
S=C(NCc1ccco1)Nc1ccc2c(c1)OCCO2	i
CCN(c1ccccc1)S(=O)(=O)c1ccc(Cl)c(Cl)c1OC	1%
CCCC(=O)Nc1ccccc1NC(=O)COc1ccc(C(C)C)cc1	i
Cc1cc(C(C)(C)C)ccc1OCCN1CCCC1	i
CC(=O)c1ccc(NC(=S)Nc2ccccc2I)cc1	i
Cc1ccc(C(=O)O/N=C(\N)Cc2ccc(Cl)cc2Cl)cc1Cl	29%
CN(C)C1CCCCC1NS(=O)(=O)c1ccccc1 (centres undefined)	2%
Cn1cc(I)c(C(=O)NNC(=S)NCc2ccc(Cl)cc2)n1	i
CCC(Sc1nnc2c3ccccc3n(C)c2n1)C(=O)NC(C(=O)OC)c1ccccc1 (centres undefined)	1%
COc1ccc(C(=O)Nc2ccccc2)cc1S(=O)(=O)Nc1cccnc1	i
Cc1ccc(NC(=O)C(C)Oc2cccc(Cl)c2)cc1Cl (centres undefined)	1%
CCC(C)NCCOCCOc1cc(C)cc(C)c1C (centres undefined)	3%
CCc1ccc(CN2CCN(C(=O)COc3ccccc3)CC2)cc1	i
C=CCn1c(SCCC(N)=O)nnc1-c1ccc(Cl)cc1	i
Cc1csc(SCC(=O)Nc2ccc3c(c2)OCCO3)n1	i
CC(=O)c1ccc(NC(=O)Nc2ccn(C)n2)cc1	1%
Fc1cccc(CNCCc2c[nH]c3ccccc23)c1	i
CS(=O)(=O)N(Cc1ccco1)CC(O)Cn1cc(C=O)c2ccccc21 (centres undefined)	i
CCOc1ccc(NC(=O)CSc2nnc(C(NC(=O)c3ccc(C)cc3)C(C)C)n2C)cc1 (centres undefined)	i
COc1cc(NC(=O)c2cc3ccccc3cc2OCC(=O)NC(C)(C)C)c(OC)cc1Cl	i
COc1ccc(NC(=O)CSc2nnc(NC(=O)c3ccccc3Cl)s2)c([N+](=O)[O-])c1	7%
O=C(COc1ccc(Cl)cc1)N1CCN(C(=O)c2cccs2)CC1	i
Cc1ccc(OC(C)C(=O)Nc2ccccc2[N+](=O)[O-])cc1C (centres undefined)	2%
CC(NC(=O)CN(c1ccc(I)cc1)S(C)(=O)=O)c1ccccc1 (centres undefined)	i
COc1ccc(-c2nnc(SCC(=O)NC3CCCCC3)n2C)cc1	i
CS(=O)(=O)Nc1ccccc1C(=O)Nc1ccccc1C(=O)N1CCCC1	i
The list continues:
SMILES	Mtb H37Rv
O=C(COc1ccccc1[N+](=O)[O-])Nc1ccccc1N1CCCCC1	5%
O=S(=O)(CCSc1ccccn1)c1nc2ccccc2s1	?
CSc1ccccc1NC(=O)Nc1ccccc1C(F)(F)F	i
CNCCOCC(O)CSc1ccccc1 (centres undefined)	i
O=C(CSc1nc2ccccc2n1-c1ccccc1)Nc1nccs1	i
CC(C)CC1C(C#N)=C(N)Oc2n[nH]c(-c3cccs3)c21 (centres undefined)	i
CCCC1(O)CC(c2ccc(OC)cc2)NC(c2ccc(OC)cc2)C1C (centres undefined)	i
CCOC(=O)c1c(NC(=S)Nc2cccc(Br)c2)sc2c1CC(C)(C)OC2	i
CCCCNS(=O)(=O)c1ccc(NC(=O)Cc2ccc(C)cc2)cc1	i
O=C(Cc1cccc2ccccc12)Nc1ccc(N2CCOCC2)c(Cl)c1	i
COC(=O)C1=C(C)Nc2nnnn2C1c1c(F)cccc1Cl (centres undefined)	i
COc1cccc(OCCN2CCN(c3ncnc4sc5c(c34)CCCC5)CC2)c1	29µg/mL*
CN(C)CCCNC(=O)Nc1ccccc1C(F)(F)F	i
O=C(Nc1ccccc1F)C12CC3CC(CC(C3)C1)C2	i
O=C(CCc1ccccc1)Nc1ccccc1Br	i
CC(C)(CSc1ncccn1)NS(=O)(=O)c1ccccc1	i
Cc1cc([N+](=O)[O-])ccc1NC(=O)c1ccco1	i
O=C(CS(=O)(=O)Cc1ccccc1)Nc1ccc2c(c1)OCCO2	3%

Screens: PubChem, Southern Research Institute
